Screens deposited in PubChem by several laboratories.
UUG fidelity – alters start codon recognition fidelity in yeast; S. cerevisiae UUG-firefly luciferase reporter, luminescence/redox ratio; activity score, % at 18.7 µM; 0.13% of 350,000 active; AID 602363;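 active = replicate mean at a twofold rise or more, about +100% in these data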;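 note: firefly luciferase made from a UUG start codon reports start codon fidelity; reporter light over untreated wells divided by growth signal over untreated wells; some hits fall short of that in this replicate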
Rce1 inh – inhibitors of yeast Ras-converting enzyme | calls only | 0.27% of 290,000 active | AID 2563 | yeast membranes, quenched prenylated peptide cleavage fluorescence;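 active = fall in fluorescence gain of 50% or more versus controls, with final raw signal at or below 3038400; inconclusive = same 50% fall but final raw signal above 3038400; inactive = fall in fluorescence gain under 50%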;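 note: plate controls were neutral control wells for no effect and wells lacking membranes for full effect; tested at 10 µM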
eIF4H inh – inhibitors of RNA binding by human eIF4H; eIF4H fluorescence polarization binding assay; AID 2012; inhibition, % at 35 µM; 0.94% of 290,000 active; Q15056;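 active = 50% or more with normal probe brightness, or confirmed in later tests; inconclusive = above 50% with abnormal brightness, or retests that disagree; inactive = below 50% or failed in later tests; about a fifth of its hits are not listed in these tables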;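 note: calls also rest on retests at 20 µM and on dose response follow-up; 0% = protein and probe with vehicle and 100% = probe without protein; strong numbers were not always called active; many hits fall short of the cut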
Env fusion inh – HIV envelope-mediated fusion inhibition | HeLa-JRFL Env/CEM21 cell fusion, luciferase | inhibition, % at 12.3 µM | 1.1% of 360,000 active;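 active = mean replicate inhibition score of at least 50 and every replicate individually at or above 50; inconclusive = only one of the two criteria met; inactive = mean below 50 and not all replicates reaching 50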;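 note: 0% = plate neutral controls and 100% = maraviroc near 300 nM; one replicate is shown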
CSC inhib – cancer stem cell inhibition. cancer stem cell-like cells viability, luminescence. inhibition, % at 7.5 µM. 1.1% of 300,000 active;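 active = mean at 75% or more and at least half the replicates too; inconclusive = mean and replicates disagree; tested in HMLE shEcad cells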;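 note: 0% = median of negative and 100% = median of positive control wells; the first replicate is given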
MT1-MMP act inh – MT1-MMP (human) activation inhibition; GFP/RFP ratio change, % at 20 µM; 0.061% of 360,000 active; HT1080 RFP-PRO-GFP cells, GFP/RFP ratio fluorescence, overnight; percent of plate control window, DMSO zero;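 active = GFP/RFP ratio change of at least 30% with cell ATP level not reduced by more than half and red fluorescence within 50% of control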; note: strong numbers were not always called active
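Material – HT1080 RFP-PRO-GFP cells · Control set – DMSO wells and RFP-L50D-GFP cells · Incubation – overnight cell settling, then overnight compound exposure, 37 °C, 5% CO2 · Compound dosing – single-point 20 µM compound, 1% DMSO · Read-out – GFP/RFP fluorescence ratio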
PABP FP inh – blocks human PABP binding to poly(A) RNA; P11940; fluorescence polarization; inhibition, % at 35 µM; 1% of 290,000 active; AID 2014;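 active = 50% or more with normal probe brightness, or confirmed in later tests; inconclusive = above 50% with abnormal brightness, or retests that disagree; inactive = below 50% or failed in later tests; about a fifth of its hits are not listed in these tables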;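 note: calls also rest on retests at 20 µM and on dose response follow-up; controls were probe without protein and protein plus probe with vehicle; some compounds called inactive have numbers as strong as hits; many hits fall short of the cut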
Target sequence (P11940 whole entry, looked up): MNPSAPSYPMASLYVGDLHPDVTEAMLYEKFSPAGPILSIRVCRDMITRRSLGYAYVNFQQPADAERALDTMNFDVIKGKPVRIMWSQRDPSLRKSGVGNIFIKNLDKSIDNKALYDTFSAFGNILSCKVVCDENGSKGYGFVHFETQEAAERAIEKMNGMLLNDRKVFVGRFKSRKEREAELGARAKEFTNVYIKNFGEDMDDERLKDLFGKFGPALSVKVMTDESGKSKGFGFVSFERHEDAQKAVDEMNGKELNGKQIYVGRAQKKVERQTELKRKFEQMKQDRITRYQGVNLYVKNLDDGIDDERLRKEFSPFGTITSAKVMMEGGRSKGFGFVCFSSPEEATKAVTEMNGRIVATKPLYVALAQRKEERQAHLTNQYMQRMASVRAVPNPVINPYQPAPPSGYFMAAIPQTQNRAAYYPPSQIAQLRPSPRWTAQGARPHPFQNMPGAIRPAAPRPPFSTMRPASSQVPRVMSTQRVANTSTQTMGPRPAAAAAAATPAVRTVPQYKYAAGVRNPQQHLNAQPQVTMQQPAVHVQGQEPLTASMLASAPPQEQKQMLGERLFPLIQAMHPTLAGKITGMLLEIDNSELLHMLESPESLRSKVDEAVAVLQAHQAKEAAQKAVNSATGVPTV
eIF4H inh retest – further read-out of eIF4H inh, marked with its call; inhibition, %; compound at 20 µM; confirmation average;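 mean of two retest wells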
PABP FP inh retest – recorded beside PABP FP inh, whose call it bears; inhibition, %; compound at 20 µM; confirmation repeats;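 mean of two retest wells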
MT1-MMP act inh RFP – recorded beside MT1-MMP act inh, whose call it bears; RFP signal change, %; measured here: RFP expression control read;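 0 = vehicle wells; hits needed this value within 50% of zero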
* = called active by the depositor; i = inactive; ? = inconclusive; · = not tested or not shown.

SMILES	UUG fidelity	Rce1 inh	eIF4H inh	Env fusion inh	CSC inhib	MT1-MMP act inh	MT1-MMP act inh RFP	PABP FP inh	others
C/C(=N\OCC(=O)OCC(=O)Nc1cc(S(C)(=O)=O)ccc1Cl)c1ccc2c(c1)OCO2	19	·	·	-2	·	0	2	·
NCCNC(=O)Cn1c(=O)c2c3c(sc2n(Cc2ccccc2)c1=O)CCCC3	-22	i	-5	8	-29	4	4	-10
O=C(CNC(=O)c1ccc(Cl)cc1)NC(CO)c1ccccc1 (configuration not stated)	-11	i	0	-3	2	2	3	-3
COC(=O)C1=COC(C)C2CN3CCc4c([nH]c5ccccc45)C3CC12 (configuration not stated)	5	i	?	·	-16	-54	10	?
CCCCCN1C=CC=C/C1=C\C=C(C#N)C#N	-46	i	-6	6	7	-104	2	-1
c1ccc(CSCc2cn3ccccc3n2)cc1	-7	·	6	-36	-4	-12	-1	5
O=S(=O)(Nc1ccc(C(F)(F)F)cn1)c1ccccc1	·	i	-9	9	-11	1	3	-8
Cc1ccc(S(=O)(=O)N2CCOCC2)cc1NC(=O)COC(=O)CNC(=O)c1ccc(Oc2ccccc2)cc1	·	i	-6	-6	3	3	4	-11
CCCCC(=O)N(Cc1ccc(-c2ccccc2-c2nn[nH]n2)cc1)[C@H](C(=O)O)C(C)C	·	i	1	·	-6	·	·	6
O=C(CNC(=O)c1cccc(F)c1)N/N=C/c1cccnc1	-12	i	·	-5	-15	4	1	·
CSCCC(C(=O)O)N1C(=O)c2ccc(C(=O)O)cc2C1=O (configuration not stated)	5	i	2	·	-1	12	9	23
COc1cccc(NC(=O)Cc2cccs2)c1	-3	i	-4	·	-6	-3	-2	-15
O=C(Nc1cccc(NC(=O)C2CC3CCCC(C2)C3=O)n1)C1CC2CCCC(C1)C2=O (configuration not stated)	4	i	-2	·	-3	4	-11	3
CC(C)CN(C(=O)COC(=O)c1cc2ccccc2cc1O)c1c(N)n(Cc2ccccc2)c(=O)[nH]c1=O	-9	·	·	13	·	-15	-9	·
COC(=O)c1ccc(OC)c(NS(=O)(=O)c2ccc(-n3cnnn3)cc2)c1	-13	·	1	-6	13	-1	-4	10
O=C1Nc2ccccc2C1=Nc1ccc(Cl)cc1	21	i	4	10	37	8	13	2
COc1ccc(CNC(=O)[C@@H](C)NC(=O)[C@@H]2Cc3ccccc3CN2)cc1	-23	i	-14	·	0	0	3	4
COc1ccc(C2(C)NC(=O)N(Cc3cc(Cl)cc4c3OCOC4)C2=O)cc1OC (configuration not stated)	·	·	0	15	1	-2	-2	4
COc1cc(NC(=O)C/C(C)=N/NC(=O)Cc2ccccc2)c(OC)cc1Cl	-15	i	5	20	-1	5	3	4
CN(c1ccccc1)S(=O)(=O)c1cccc(C(=O)Nc2ccc(N3CCOCC3)cc2)c1	3	·	·	-8	·	-9	-16	·
Cn1c(C(=O)N2CCN(c3cccc(C(F)(F)F)c3)CC2)cc2sccc21	14	i	2	?	28	4	1	6
O=C(c1cccs1)c1no[n+]([O-])c1C(=O)c1cccs1	15	i	-8	·	-8	5	6	1
O=C(O)c1cc(=O)[nH]c2ccc(S(=O)(=O)Nc3ccc(F)cc3)cc12	-7	i	9	-6	12	0	4	-1
CNC(=O)CS(=O)CC(=O)Nc1cc(OCCOC)c(Cl)cc1Cl (configuration not stated)	·	·	-1	4	-6	1	-2	1
Cc1cccc(C2Nc3ccccc3C(=O)N2c2ccccc2)n1 (configuration not stated)	3	i	1	·	2	-7	2	4
CCc1nc2ccc(C(=O)NCc3ccccc3)cc2nc1CC	·	i	2	-9	-3	0	-1	4
Cn1c(SCC(=O)N/N=C/c2cccnc2)nnc1-c1ccccc1	-10	i	6	-15	-9	5	2	-3
COc1cccc(CNC(=O)CSc2nnc3c(n2)[nH]c2ccc(F)cc23)c1	-8	i	-1	-2	13	1	-8	1
COC(=O)c1ccc(CN(Cc2ccc(C(=O)OC)o2)C(C)(C)C)o1	·	i	0	·	-6	5	5	0
CCc1cccc(NC(=O)C2CCCN2S(=O)(=O)c2ccccc2C(F)(F)F)c1 (configuration not stated)	-11	·	·	38	·	0	-1	·
CCOc1ccc(N2CC(C(=O)NCc3ccco3)CC2=O)cc1 (configuration not stated)	-13	·	21	7	-6	-5	1	-2
CCCNC(=S)NNC(=O)c1cccs1	·	i	-2	-4	-16	2	6	-1
COc1cc(OC)c2c(-c3ccccc3)cc(=O)oc2c1C(CCN1CCCC1)c1ccc2c(c1)OCO2 (configuration not stated)	-12	i	-13	-42	15	5	1	-31
CC1CCN(C(=O)CCn2c(=O)oc3ccc(Cl)cc32)CC1	7	·	·	-31	·	2	2	·
O=c1[nH]nc(Cc2ccc(-c3ccccc3Cl)o2)c2ccccc12	-14	i	-13	-24	·	-11	-7	1
CCOc1ccc(Nc2nc(N)c([N+](=O)[O-])c(N3CCOCC3)n2)cc1	-17	i	4	5	4	0	-5	86	eIF4H inh retest=5;PABP FP inh retest=8
COc1ccc(NC(=O)C2CCN(S(=O)(=O)c3cccnc3)CC2)cc1Cl	-11	i	-1	0	4	3	8	4
O=C(c1ccc2c(c1)CCN2S(=O)(=O)c1ccccc1)N1CCN(c2ccccc2F)CC1	-3	i	-8	-4	·	-1	3	2
COc1ccc(O[C@H]2C=C[C@@H](c3ccccc3)O[C@@H]2CO/N=C(\C)CCC(=O)OC[C@H]2O[C@H](c3ccccc3)C=C[C@@H]2Oc2ccc(OC)cc2)cc1	·	i	-1	·	-13	·	·	20
COc1coc(C(O)C[N+](=O)[O-])cc1=O (configuration not stated)	·	·	17	10	-14	-1	3	-4
O=C(OC1CCc2ccccc2C1=O)c1ccccc1O (configuration not stated)	-24	·	-3	·	-6	-8	-5	1
COc1ccc(C(=O)OCC(=O)Nc2c(C)cccc2C)cc1	·	i	-6	1	-17	-3	0	-2
CCOc1ccccc1OCC(=O)Nc1ccccc1C(=O)NC1CC1	3	i	·	-1	-16	2	1	·
CN(NC(=O)Nc1ccccc1)c1cnn(C)c(=O)c1Cl	-9	i	-3	9	-2	0	3	-6
COCCCN1C(=O)C(=O)/C(=C(/O)c2ccc(S(=O)(=O)N3CCOCC3)cc2)C1c1ccc(C(C)C)cc1 (configuration not stated)	3	i	3	-2	-17	3	5	-6
CCC1(C)CC(=O)N(c2ccc(F)c(Cl)c2)C(=O)C1	-10	i	5	13	-13	4	3	-13
Clc1ccc(Cn2ccc(C3CC3)n2)cc1	·	i	-8	-9	-4	-3	-2	-12
Cc1cc(C)c2[nH]c(=O)c(C(c3nnnn3Cc3ccc4c(c3)OCO4)N3CCCC3)cc2c1 (configuration not stated)	4	i	5	·	-2	-5	1	15
COc1ccc(OC)c(NC(=O)C2CC(=O)N(c3ccc(Br)cc3)C2)c1 (configuration not stated)	3	i	-5	·	-22	5	2	4
CCN1C(=O)[C@H]2[C@@H](c3ccc(C)cc3)N3C(=O)N(c4cccc(Cl)c4)C(=O)[C@@]3(Cc3ccc(Cl)cc3)[C@H]2C1=O	-1	·	·	59*	15	1	-2	·
Cc1ccc(C(=O)NCC(=O)O)o1	·	i	3	-14	-7	0	4	2
CCn1c(COc2ccccc2C(N)=O)nc2ccccc21	-16	i	-6	·	-6	6	4	9
O=C(NC1CC2CCC(C1)N2Cc1ccccc1)c1ccccc1Cl (configuration not stated)	-16	i	5	-14	0	-5	-1	-8
O=C(CN1Cc2ccccc2C1=O)Nc1ccc2c(c1)OCCO2	-17	i	0	-13	8	-2	1	-4
CC(=O)N[C@@H]1[C@@H](O)[C@@H]2OC(c3ccccc3)OC[C@H]2O[C@@H]1N=[N+]=[N-] (some centres not stated)	7	i	3	-77	-15	0	0	-18
Cc1cc(C)n2nc(-c3sccc3-n3cccc3)cc2n1	-4	i	5	·	-11	-4	-3	-7
NS(=O)(=O)c1ccc(NC(=O)C(Sc2ccccc2)c2ccccc2)cc1 (configuration not stated)	7	i	-12	?	·	-2	3	-14
COc1ccc(-n2c(-c3ccc(Cl)cc3)c[n+]3c2CCc2ccccc2-3)cc1	·	i	-4	38	-1	-24	-29	-4
c1ccc(-n2nnc(-c3cccnc3)n2)cc1	-13	i	-8	·	2	2	3	-10
Cc1cc(OCc2cc(C(=O)NCc3csc(C(C)C)n3)no2)cc(C)c1Cl	-4	i	2	-45	6	-1	2	-8

The final 2 entries of the section above open the next one:
SMILES	UUG fidelity	Rce1 inh	eIF4H inh	Env fusion inh	CSC inhib	MT1-MMP act inh	MT1-MMP act inh RFP	PABP FP inh	others
c1ccc(-n2nnc(-c3cccnc3)n2)cc1	-13	i	-8	·	2	2	3	-10
Cc1cc(OCc2cc(C(=O)NCc3csc(C(C)C)n3)no2)cc(C)c1Cl	-4	i	2	-45	6	-1	2	-8
Cc1ccc2nc3c(cc2c1)c(C)nn3-c1ccccc1	-21	i	-3	10	63	-8	-2	-3
COc1ccc(-c2noc(CCC(=O)NCC3CCCO3)n2)cc1OC (configuration not stated)	-5	i	-3	-1	-24	4	5	2
COc1ccc(Nc2cc(C(=O)NCCCOC(C)C)c3ccccc3n2)c(OC)c1	1	i	-5	14	-3	-5	-5	-6
CC(=O)N1CCCc2ccccc21	·	i	-1	0	-7	-2	4	18
CC(=O)c1cccc(NC(=O)N2CCC(NC(=O)C34CC5CC(CC(C5)C3)C4)CC2)c1	-3	i	2	2	-16	6	-4	-9
CC1CN(C(=O)c2cc3cc([N+](=O)[O-])ccc3s2)CC(C)O1 (configuration not stated)	·	i	-12	-4	·	-2	3	-12

13 compounds already listed, arranged by length of the SMILES, high to low:
SMILES	UUG fidelity	Rce1 inh	eIF4H inh	Env fusion inh	CSC inhib	MT1-MMP act inh	MT1-MMP act inh RFP	PABP FP inh	others
COc1cc(OC)c2c(-c3ccccc3)cc(=O)oc2c1C(CCN1CCCC1)c1ccc2c(c1)OCO2 (configuration not stated)	-12	i	-13	-42	15	5	1	-31
C/C(=N\OCC(=O)OCC(=O)Nc1cc(S(C)(=O)=O)ccc1Cl)c1ccc2c(c1)OCO2	19	·	·	-2	·	0	2	·
CN(c1ccccc1)S(=O)(=O)c1cccc(C(=O)Nc2ccc(N3CCOCC3)cc2)c1	3	·	·	-8	·	-9	-16	·
COc1ccc(CNC(=O)[C@@H](C)NC(=O)[C@@H]2Cc3ccccc3CN2)cc1	-23	i	-14	·	0	0	3	4
COC(=O)c1ccc(OC)c(NS(=O)(=O)c2ccc(-n3cnnn3)cc2)c1	-13	·	1	-6	13	-1	-4	10
COc1cc(NC(=O)C/C(C)=N/NC(=O)Cc2ccccc2)c(OC)cc1Cl	-15	i	5	20	-1	5	3	4
COC(=O)C1=COC(C)C2CN3CCc4c([nH]c5ccccc45)C3CC12 (configuration not stated)	5	i	?	·	-16	-54	10	?
O=C(NC1CC2CCC(C1)N2Cc1ccccc1)c1ccccc1Cl (configuration not stated)	-16	i	5	-14	0	-5	-1	-8
O=C(CN1Cc2ccccc2C1=O)Nc1ccc2c(c1)OCCO2	-17	i	0	-13	8	-2	1	-4
O=C(CNC(=O)c1cccc(F)c1)N/N=C/c1cccnc1	-12	i	·	-5	-15	4	1	·
O=S(=O)(Nc1ccc(C(F)(F)F)cn1)c1ccccc1	·	i	-9	9	-11	1	3	-8
CCCNC(=S)NNC(=O)c1cccs1	·	i	-2	-4	-16	2	6	-1
CC(=O)N1CCCc2ccccc21	·	i	-1	0	-7	-2	4	18
